GIV-Gai inh – inhibitors of GIV GBA-motif binding to rat Galpha-i3; P08753; 0.42% of 210,000 active; Galpha-i3/FITC-GIV peptide fluorescence polarization, 90 min; stronger effect = lower value; scaled: aluminum fluoride 0%, vehicle 100%; percent of control (FP), % (concentration not given with the values);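 active = replicate mean at 85% of control or lower, very high polarization wells dropped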;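 note: wells of about 15 µL received 100 nL stock; the first replicate is given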
Target sequence (P08753 whole entry, looked up): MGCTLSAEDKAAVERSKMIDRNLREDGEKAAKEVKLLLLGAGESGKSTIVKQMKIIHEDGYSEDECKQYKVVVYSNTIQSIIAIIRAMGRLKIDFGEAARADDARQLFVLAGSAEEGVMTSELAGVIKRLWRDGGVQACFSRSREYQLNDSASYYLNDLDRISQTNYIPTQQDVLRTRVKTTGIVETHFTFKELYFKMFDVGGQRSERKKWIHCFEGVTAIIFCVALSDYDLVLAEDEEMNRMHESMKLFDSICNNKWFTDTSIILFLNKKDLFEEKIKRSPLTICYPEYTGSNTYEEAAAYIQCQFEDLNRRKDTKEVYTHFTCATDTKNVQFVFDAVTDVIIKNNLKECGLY
HCMV UL50-53 inh – cytomegalovirus nuclear egress complex inhibition | HTRF UL50-UL53 interaction, normalized percent inhibition | inhibition, % (test concentration not listed) | 0.15% of 190,000 active;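 active = both replicates at 50% or more, plus weaker picks with an unusually low signal ratio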;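 note: stock transfer was 100 nL into about 20 µL; 0% = negative control wells and 100% = wells with untagged competitor protein; inactives centre near -12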
Sa growth 42C – S. aureus growth inhibition. AID 720641. 0.53% of 170,000 active. S. aureus RN4220 growth, OD600, 20 h, 42 °C; stronger effect = lower value. relative growth, % (no concentration beside the values);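 active = growth at 42 °C up to 50% and 20 or more points under that at 30 °C, or under 10% at both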;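 note: 300 nL library stock went into each well; scaled to the means of positive and negative controls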
Sa growth 42C second temp – recorded beside Sa growth 42C, whose call it bears; relative growth, %; measured here: growth at 30 °C;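 optical density after 20 h as mean of two plates; 100% = untreated growth and lower means inhibition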
* marks the source's active call; other numbers are inactive results; / = no result given.

item | SMILES | GIV-Gai inh | HCMV UL50-53 inh
1 | NS(=O)(=O)c1ccc(NC(=O)NC2CC(=O)N(c3ccc(Cl)cc3)C2)cc1 (stereo unspecified) | 100 | -8
2 | O=C1CCCc2nc(N3CCCCC3)sc21 | 104 | /
3 | COCCn1c(=O)[nH]c2cc(C(=O)OC)ccc2c1=O | 102 | /
4 | Cn1c(C(=O)N2COCC2(C)C)cc2c(=O)n3ccccc3nc21 | 101 | /
5 | COC(=O)c1ccc(OCC2c3cc(OC)c(OC)cc3CCN2C(=O)c2ccc(Br)o2)cc1 (stereo unspecified) | 102 | -26
6 | Cc1ccc(NC(=O)CCCN2C(=O)COc3ccc(C)cc32)c(Cl)c1 | 116 | 8
7 | CCOC(=O)c1noc(C)c1-c1csc(COc2cc(Cl)cc(Cl)c2)n1 | 101 | -3
8 | Cc1nc(/C(=N/O)C(N)=O)cs1 | / | -63
9 | CCc1ccc(NC(=O)c2cccc3c2SCCC3=O)cc1 | 108 | /
10 | Cc1cccc(N2CCN(c3c4c(nc5nncn35)CCC4)CC2)c1C | 99 | -27
11 | CCc1cc2c(=O)n(Cc3ccco3)c(SC)nc2s1 | 101 | /
12 | Cc1sc2nc(-c3ccco3)oc(=O)c2c1C | 103 | -20
13 | NC(=O)c1ccccc1NC(=O)C1Nc2ccccc2S(=O)(=O)N1 (stereo unspecified) | 107 | -24
14 | Cc1cccc(N2C(=O)C(CC(=O)Nc3ccccc3)N(C3CCCCC3)C2=O)c1 (stereo unspecified) | 101 | -31
15 | CN(C)C(=O)CN1CCN(c2cc(C(=O)O)c3cc(NC(=O)C4CCCC4)ccc3n2)CC1 | 106 | -40

item | Sa growth 42C | Sa growth 42C second temp
1 | 88 | 86
2 | 94 | 83
3 | 88 | 102
4 | 98 | 80
5 | 92 | 79
6 | 113 | 96
7 | 93 | 97
8 | 80 | 75
9 | 110 | 100
10 | 109 | 85
11 | 82 | 84
12 | / | /
13 | / | /
14 | 108 | 90
15 | / | /

Next part:
item | SMILES | GIV-Gai inh | HCMV UL50-53 inh
16 | CCOC(=O)c1cc(C#N)c(SC)nc1C | 106 | 0
17 | COc1ccc(CC(=O)Nc2nnc(C3CCCCC3)s2)cc1OC | 99 | -9
18 | CCC(=N\Nc1nc2ccccc2[nH]1)/C(CC)=N/Nc1nc2ccccc2[nH]1 | / | 0
19 | CCOC(=O)c1nc2cc(C)c(C)cc2nc1NC1CCCC1 | 130 | -15
20 | CCOC(=O)C(CC)n1nnc2sc(-c3ccccc3)cc2c1=O (stereo unspecified) | 113 | -41
21 | COC(=O)c1c(C)nn(-c2ccccn2)c1-c1cc(C)on1 | 103 | -4
22 | COc1ccccc1/C=C/c1nc(C#N)c(NC(C)c2ccccc2)o1 (stereo unspecified) | 103 | -3
23 | Cc1nc2cc(C(=O)OCC(=O)NC3CCS(=O)(=O)C3)ccc2n1-c1ccccc1 (stereo unspecified) | / | -24
24 | Cc1cc(F)ccc1NC(=O)Cn1nc(N2CCN(c3ccccc3)CC2)ccc1=O | 102 | /
25 | Cc1cccc(N(C)C(=O)c2ccc3c(=O)n4c(nc3c2)CCCCC4)c1 | 100 | /
26 | Cc1nc(CC(=O)NCCc2nc3ccccc3[nH]2)cs1 | 105 | 0
27 | NC(=O)CN1C(=O)CSc2ccc(C(=O)N3CCCC3)cc21 | 107 | -24
28 | CCOC(=O)c1ccc(NC(=O)CSc2ccc(-c3ccccn3)nn2)cc1 | 105 | /
29 | COC(=O)c1ccc(S(=O)(=O)N(C2CCCCC2)C2CCCCC2)n1C | 103 | -34
30 | Cn1c(SCc2cc(=O)n3[nH]c(-c4ccccc4)nc3n2)nnc1-c1ccccc1 | 102 | 18

item | Sa growth 42C | Sa growth 42C second temp
16 | 106 | 97
17 | 93 | 85
18 | 119 | 84
19 | / | /
20 | 98 | 85
21 | 88 | 87
22 | 120 | 94
23 | 104 | 97
24 | 71 | 78
25 | 105 | 84
26 | / | /
27 | / | /
28 | 154 | 117
29 | 100 | 91
30 | / | /

The list continues.
item | SMILES | GIV-Gai inh | HCMV UL50-53 inh
31 | Cc1ccc(Cl)cc1N1CCN(C(=O)c2onc(C)c2Cl)CC1 | 104 | /
32 | Cc1c(OC(=O)c2ccco2)ccc2c3c(c(=O)oc12)CCC3 | 106 | /
33 | CCOC1=NC(C(F)(F)F)(C(F)(F)F)N=C(N2CCOCC2)O1 | 109 | 18
34 | CC1CCc2c(nc3ncnn3c2NCCC2CCCN2C)C1 (stereo unspecified) | / | -4
35 | O=C(NCc1ccccc1)c1ccc(CN(c2ccccc2)S(=O)(=O)c2ccccc2)cc1 | / | -9
36 | c1ccc2c(c1)nc1n2CN(CCCN2CCOCC2)CN1CC1CCCO1 (stereo unspecified) | 99 | -34
37 | O=C(O)CN1C(=O)COc2cc(S(=O)(=O)N3CCCC3)ccc21 | 101 | 2
38 | COc1ccc(Cl)cc1NC(=O)C1CSC(c2ccncc2)=N1 (stereo unspecified) | 103 | -11
39 | Cc1c(C(=O)Nc2ccccc2N2CCN(C)CC2)sc2nc3n(c(=O)c12)CCCCC3 | 93 | /
40 | c1ccc(-c2noc(-c3cccnc3NC3CCCCC3)n2)cc1 | 98 | 13
41 | COc1ccc(C(C)=NNC(=O)c2cc(Br)ccc2O)c(OC)c1 | 110 | -30
42 | Cc1noc(C)c1CSc1nc2c(c(-c3ccccc3)c1C#N)C(=O)CC(C)(C)C2 | 102 | -10
43 | CC(Oc1ccc(F)cc1)C(=O)NCC1(N(C)C)CCCCC1 (stereo unspecified) | 103 | -32
44 | CC(C)CN1CC(C(=O)O)CC1=O (stereo unspecified) | 104 | /
45 | COc1cc(-c2cc(C(F)(F)F)n3ncc(C(=O)NC4CCCCC4)c3n2)cc(OC)c1OC | 90 | -25

item | Sa growth 42C | Sa growth 42C second temp
31 | 91 | 93
32 | 110 | 88
33 | 98 | 98
34 | 104 | 90
35 | 84 | 86
36 | / | /
37 | 88 | 88
38 | 98 | 88
39 | 96 | 88
40 | / | /
41 | 60 | 38
42 | 102 | 95
43 | 109 | 85
44 | 112 | 81
45 | / | /

Next section.
item | SMILES | GIV-Gai inh | HCMV UL50-53 inh
46 | COc1cc(OC)c(NC(=O)C(C)n2c(=O)cc(-c3ccccc3)c3c(C)nn(C)c32)cc1Cl (stereo unspecified) | 104 | /
47 | Cc1ccc(NC(=O)CCc2ccc(C)o2)c(Br)c1 | 99 | -13
48 | O=C1C2=C(c3ccccc31)[N+](=O)[C@@H]1CCCC[C@@H]1N2[O-] | 98 | -140
49 | COc1ccc(C)c(CN(C)C)c1 | 101 | -14
50 | COc1cc(C2OC(=O)c3ccccc3S2)cc(OC)c1OC (stereo unspecified) | 101 | -13
51 | CCOC(=O)C(=O)Nc1onc(-c2ccccc2)c1C(=O)OCC | 95 | -4
52 | O=S(=O)(c1ccc2nc(N3CCN(c4ccccc4F)CC3)ccc2c1)N1CCCCC1 | 118 | /
53 | CC(=O)N1CCc2c(sc3nc(-c4cc5cc(Cl)ccc5oc4=O)[nH]c(=O)c23)C1 | 137 | -14
54 | O=c1c2c(N3CCOCC3)cc(N3CCOCC3)nc2n(-c2ccccc2)c(=O)n1-c1ccccc1 | 102 | 6
55 | COc1ccccc1NC(=O)N(Cc1ccccc1)c1ccccn1 | / | -5
56 | O=c1[nH]cc(NC(=S)N2CCOCC2)c(=O)[nH]1 | 99 | -12
57 | Cc1ccc(-c2cc3c4c(C)n(C5CCCCC5)c(C)c4c(C)nn3c2)o1 | 108 | -13
58 | CCN1c2cc(C)ccc2-n2cccc2C12CCN(S(=O)(=O)c1c(C)cc(C)cc1C)CC2 | 100 | -38
59 | O=S(=O)(Nc1ccc(-c2cn3ccccc3n2)cc1)c1ccc(Br)cc1 | 105 | 11
60 | C=CCNC(=S)NN1CCN(C)CC1 | 100 | -2

item | Sa growth 42C | Sa growth 42C second temp
46 | 91 | 93
47 | 113 | 97
48 | 62 | 20
49 | 95 | 80
50 | 100 | 72
51 | / | /
52 | 91 | 101
53 | 102 | 100
54 | 105 | 97
55 | 120 | 101
56 | 92 | 89
57 | 96 | 77
58 | / | /
59 | / | /
60 | 95 | 97

From entry 59 to 60, as listed above:
item | SMILES | GIV-Gai inh | HCMV UL50-53 inh
59 | O=S(=O)(Nc1ccc(-c2cn3ccccc3n2)cc1)c1ccc(Br)cc1 | 105 | 11
60 | C=CCNC(=S)NN1CCN(C)CC1 | 100 | -2

item | Sa growth 42C | Sa growth 42C second temp
59 | / | /
60 | 95 | 97

(further entries)
item | SMILES | GIV-Gai inh | HCMV UL50-53 inh
61 | Cc1ccc(SCc2cn3ccsc3n2)cc1 | 101 | -10
62 | NC1CCN(c2ncccn2)CC1 | 103 | -21
63 | CN1CCN(C(c2ccncc2)c2ccc3cccnc3c2O)CC1 (stereo unspecified) | / | -30
64 | CCc1ccccc1N1CC(C(=O)OCCN2C(=O)c3ccccc3C2=O)CC1=O (stereo unspecified) | / | -33
65 | Cc1cc(C)c(C#N)c(SCc2ccccc2)n1 | 108 | /
66 | Cc1cc2c(cc1S(=O)(=O)CCC(=O)Nc1cccc(F)c1)OCC(=O)N2 | 107 | -9
67 | CNc1cc(C(=O)O)ccn1 | 104 | -24
68 | Cc1ccc2c(c1)c1c(n2C)C(C(N)=O)CCC1 (stereo unspecified) | 103 | /
69 | CCOC(=O)c1ccc(NC(=O)CSc2nccn2-c2ccc(OC)cc2)cc1 | 108 | 0
70 | NC(=O)COC(=O)/C=C/c1ccc(I)o1 | / | -94
71 | CCOc1ccc(C(=O)NN2C(=O)c3ccccc3C2=O)cc1 | 101 | 1
72 | COc1cc(NC(=O)c2cccc3c2C(=O)N(C2CCCCC2)C3)cc(OC)c1OC | 101 | -18
73 | O=C(OCc1ccccc1)Sc1nc2ccccc2o1 | 103 | -2
74 | Cc1ccccc1NS(=O)(=O)c1nnc(NC(=O)c2ccco2)s1 | 108 | -24
75 | C=CCn1c(SCC(=O)N2CCCCC2C)nc2ccccc2c1=O (stereo unspecified) | / | 8

item | Sa growth 42C | Sa growth 42C second temp
61 | / | /
62 | 93 | 92
63 | 84 | 73
64 | 96 | 95
65 | 81 | 103
66 | / | /
67 | 88 | 81
68 | 106 | 84
69 | 125 | 90
70 | 111 | 89
71 | 95 | 97
72 | 89 | 70
73 | 92 | 94
74 | 107 | 69
75 | 85 | 91

One compound at a time, as listed above. Order of values: GIV-Gai inh	HCMV UL50-53 inh	Sa growth 42C	Sa growth 42C second temp
`Cc1ccc2c(c1)c1c(n2C)C(C(N)=O)CCC1` (stereo unspecified) as listed: 103	/	106	84
`NC(=O)COC(=O)/C=C/c1ccc(I)o1` as listed: /	-94	111	89
`CCOc1ccc(C(=O)NN2C(=O)c3ccccc3C2=O)cc1` as listed: 101	1	95	97
`O=C(OCc1ccccc1)Sc1nc2ccccc2o1` as listed: 103	-2	92	94

Three entries already listed, ordered by the value under Sa growth 42C second temp, high to low:
item | structure | Sa growth 42C second temp
71 | CCOc1ccc(C(=O)NN2C(=O)c3ccccc3C2=O)cc1 | 97
73 | O=C(OCc1ccccc1)Sc1nc2ccccc2o1 | 94
75 | C=CCn1c(SCC(=O)N2CCCCC2C)nc2ccccc2c1=O (stereo unspecified) | 91

Next structures
item | SMILES | GIV-Gai inh | HCMV UL50-53 inh
76 | Brc1ccc(/C=N/n2cnnc2SCc2ccccc2)cc1 | 102 | /
77 | CCC(=O)Nc1ccc(C(=O)O)cc1NC(=O)CC | 104 | /
78 | CC1(C)C2CCC1(CS(=O)(=O)N1CCC(C(=O)O)CC1)C(=O)C2 (stereo unspecified) | / | -30
79 | O=C(OC1CCOC1=O)c1cn(-c2ccccc2)nc1-c1ccccc1 (stereo unspecified) | / | -12
80 | CCCc1nnc(NC(=O)C(CC)Sc2nc(N)cc(=O)[nH]2)s1 (stereo unspecified) | 102 | 14
81 | Cc1cccc(NC(=S)N2CCCCC2C(N)=O)c1 (stereo unspecified) | / | -24
82 | CN(CC(=O)N1CCCc2ccccc21)S(=O)(=O)c1ccc2c(c1)OCCO2 | / | -22
83 | Cn1nc(C(F)(F)F)c(-c2ccccc2)c1NC(=O)COCC(=O)O | 102 | -2
84 | COc1ccc(NC(=O)CSCc2cc(=O)c3cc(Cl)ccc3[nH]2)cc1 | 101 | /
85 | CC1=C(c2ccc(C)c(C)c2)S(=O)(=O)N=C1N1CCC(C(=O)NCc2ccc(N(C)C)cc2)CC1 | 99 | /
86 | CN(C1CCCCC1)S(=O)(=O)c1ccc(-n2cccn2)cc1 | 103 | /

item | Sa growth 42C | Sa growth 42C second temp
76 | 113 | 91
77 | 93 | 85
78 | 99 | 93
79 | 95 | 88
80 | 88 | 89
81 | 90 | 84
82 | 103 | 90
83 | 104 | 100
84 | 108 | 89
85 | 76 | 91
86 | 101 | 86

Source: PubChem BioAssay (ICCB-Longwood Screening Facility, Harvard Medical School)
